ALR inh: inhibitors of human ALR sulfhydryl oxidase, primary screen, biochemical, H2O2 detection, HRP-luminol luminescence, single point | purified ALR, DTT oxidation | inhibition, % (no concentration beside the values) | 290,000 compounds, 3.8% hits;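 active = mean and each replicate at 75% or more; inconclusive = only one of the two met; inactive = neither met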;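 also: stock transfer was 7.5 nL into about 7.5 µL; 0% = neutral wells and 100% = wells with inactivated enzyme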
Target sequence (P55789 whole entry, looked up): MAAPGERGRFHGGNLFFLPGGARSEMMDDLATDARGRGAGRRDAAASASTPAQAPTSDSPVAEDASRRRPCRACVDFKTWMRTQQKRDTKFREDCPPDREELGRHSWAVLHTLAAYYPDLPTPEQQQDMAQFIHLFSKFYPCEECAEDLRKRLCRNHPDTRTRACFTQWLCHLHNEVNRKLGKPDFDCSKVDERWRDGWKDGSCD
Beta2AR agonist: beta2AR agonists driving receptor internalization, primary screen, cell-based, FAP fluorogen, flow cytometry; AID 504454, 2011; Am2.2-beta2AR cells; reference of the scale not given here; 340,000 compounds, 0.43% hits; Beta-2 adrenergic receptor (Homo sapiens), P07550; response, % (no concentration beside the values);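 active = response above a set limit, near 3 SD of response in nonfluorescent compounds, cut at about 42% in these data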;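 also: stock transfer was 100 nL into about 11 µL; a reference agonist was the positive control; negative values mostly stem from fluorescent compounds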
Target sequence (P07550 whole entry, looked up): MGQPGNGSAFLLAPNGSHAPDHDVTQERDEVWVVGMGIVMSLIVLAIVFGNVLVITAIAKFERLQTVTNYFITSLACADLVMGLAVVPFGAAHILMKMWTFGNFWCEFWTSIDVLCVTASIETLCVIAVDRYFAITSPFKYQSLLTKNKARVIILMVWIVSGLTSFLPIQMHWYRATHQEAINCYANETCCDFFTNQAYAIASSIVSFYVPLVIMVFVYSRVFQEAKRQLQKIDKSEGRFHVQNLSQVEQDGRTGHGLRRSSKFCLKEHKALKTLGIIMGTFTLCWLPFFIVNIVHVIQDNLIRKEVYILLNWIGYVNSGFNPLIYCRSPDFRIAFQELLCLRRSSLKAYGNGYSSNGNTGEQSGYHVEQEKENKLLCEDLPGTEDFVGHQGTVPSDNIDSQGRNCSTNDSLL
Vif A3G: inhibitors of Vif binding to APOBEC3G peptide, primary screen, biochemical, TR-FRET, GST-Vif 1-94, biotin-A3G peptide, dose response retest (AID 1117319) | TR-FRET GST-Vif / biotin-A3G peptide binding; higher % means a stronger effect; test concentration not given here; strong numbers were not always called active | one-dose inhibition, %; IC50 in µM for titrated hits | 260,000 compounds, 0.57% hits;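 active = above the screen mean plus three standard deviations and confirmed in dose response; inconclusive = results disagree or hit not tested in dose response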;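 also: Vif residues 1-94 fused to GST binding biotinylated APOBEC3G peptide 110-148; 0% = full assay without inhibitor and 100% = GST in place of GST-Vif; retest series ran down from 100 µM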
RanGTP-Impb inh: inhibitors of RanGTP-importin-beta interaction, primary screen, biochemical, FRET, CFP-Ran, YFP-importin-beta, homogeneous. Ran GTPase (GTP-bound) - importin-beta complex. cell-free CFP-Ran/YFP-importin-beta FRET ratio. inhibition, % (test concentration not listed). 300,000 compounds, 1.1% hits;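 active = most replicates above 15%; inconclusive = exactly half above 15%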;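 also: 0% = DMSO wells and 100% = Ran loaded with GDP instead of GTP; wells of about 40 µL received 100 nL stock; the first replicate is given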
HNF4A DNA FP: change in binding of human HNF4A to DNA, primary screen, biochemical, fluorescence polarization, FITC-DNA; Hepatocyte nuclear factor 4-alpha (Homo sapiens), P41235; 1 h; activity change, % at 10 µM; 360,000 compounds, 0.3% hits; in the data active = activity change above about 30%, passing the limit was not always enough;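 also: controls were the assay level and a saturating level of protein; the project sought stronger binding though the title names inhibitors; some compounds called inactive have numbers as strong as hits; positive values seem to mean higher polarization but the record does not say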
Target sequence (P41235 whole entry, looked up): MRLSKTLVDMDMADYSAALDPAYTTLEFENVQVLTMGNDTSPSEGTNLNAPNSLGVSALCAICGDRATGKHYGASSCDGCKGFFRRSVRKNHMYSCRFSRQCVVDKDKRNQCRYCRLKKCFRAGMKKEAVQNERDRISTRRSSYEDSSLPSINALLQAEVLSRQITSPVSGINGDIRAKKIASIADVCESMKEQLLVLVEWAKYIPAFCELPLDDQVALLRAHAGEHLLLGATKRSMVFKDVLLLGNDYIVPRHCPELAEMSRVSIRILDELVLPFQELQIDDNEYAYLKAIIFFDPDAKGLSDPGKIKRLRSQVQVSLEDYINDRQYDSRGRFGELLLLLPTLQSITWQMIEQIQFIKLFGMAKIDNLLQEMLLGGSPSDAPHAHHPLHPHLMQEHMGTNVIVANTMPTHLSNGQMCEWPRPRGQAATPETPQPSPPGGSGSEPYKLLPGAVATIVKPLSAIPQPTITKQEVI
LANA-H2B inh: blockers of LANA interaction with H2A/H2B – biochemical, FP readout, HTS, primary screen; cell-free LANA-H2A/H2B peptide, fluorescence polarization; 320,000 compounds, 0.6% hits; inhibition, % (concentration not given with the values); in the data active = inhibition mostly above about 10%, no sharp cut-off; inactive = mostly below about 6.7%;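 also: stock transfer was 7.5 nL into about 10 µL; 0% = median of vehicle wells and 100% = median of positive control wells; one replicate is shown; the record names a cut of 25% in any replicate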
Calb FLC: C. albicans growth inhibition with fluconazole, primary screen, CaCi-2 strain, Alamar Blue fluorescence; C. albicans CaCi-2 (fluconazole-resistant clinical isolate) + fluconazole, 48 h; growth inhibition, % (no concentration beside the values); 300,000 compounds, 0.57% hits; AID 1979, 2009;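 active = most replicates above 75%; inconclusive = exactly half above 75%; inactive = most below 75%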;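 also: all wells also contain fluconazole at 8 µg/ml as a sub-toxic cotreatment; 0% = median of DMSO wells and 100% = median of geldanamycin control wells; wells of about 8 µL received 7.5 nL stock; the first replicate is given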
Starred values were filed as active, the others as inactive; u = inconclusive; x = no result given. Random draw from the library. Share with any hit: about 6.3%.

SMILES | ALR inh | Beta2AR agonist | Vif A3G | RanGTP-Impb inh | HNF4A DNA FP | LANA-H2B inh | Calb FLC
CC(=O)NC1C(=O)N=C(SCC(=O)Nc2cccc(Cl)c2)NC1=O (stereo not given) | 99* | 0 | 0% | 2.6 | 2.8 | 0.2 | 3
CN(Cc1nc2ccccc2c(=O)[nH]1)CC(O)COCc1ccco1 (stereo not given) | -5 | 0 | -1% | -1.8 | -0.6 | -4.1 | 3
O=C(CCNS(=O)(=O)c1cccc(C(F)(F)F)c1)NC1CC1 | 0 | -2 | -10% | x | -2.6 | 6.1 | x
CCOC(=O)c1cnc2c(ccc3ccccc32)c1NCCO | -27 | 10 | -6% | -2.4 | 1.7 | 2.9 | 49
O=C(Cc1cccs1)NCCc1ccc(F)cc1 | x | 7 | x | -0.3 | 0.1 | 2.5 | -8
Cc1ccc(C(NC(=O)N2CCCCC2)=C(Cl)Cl)cc1F | 58 | 15 | x | 1.3 | 2.4 | 1.5 | -4
Cc1nc2ccccc2c(=O)n1Cc1ccco1 | x | 0 | 2% | -9.3 | -2.5 | 3.5 | -6
CCCCC(=O)Nc1nc(C)c(-c2csc(Nc3ccc(Cl)cc3)n2)s1 | 1 | 14 | u | 1.4 | 6.1 | 9.5 | 1
CN(C)C(=O)CC12CC3CC(C1)CC(CC(=O)N(C)C)(C3)C2 | -3 | 6 | 4% | -2.0 | 2.9 | -2.0 | 7
O=C(N/C(=C/c1cccc([N+](=O)[O-])c1)C(=O)N1CCOCC1)c1ccc(Br)cc1 | -16 | -4 | 2% | 2.4 | -2.2 | 0.0 | 8
CC1CCCCN1C(=O)COC(=O)c1n[nH]c2ccccc12 (stereo not given) | 0 | -9 | -4% | 5.4 | 1.2 | 0.1 | u
Cc1cccc(C)c1N1CCN(c2cc(Cl)nc(N)n2)CC1 | 5 | 6 | 5% | 9.9 | -3.7 | -1.0 | -3
CCOC(=O)c1c(NC(C)=O)sc2c1CCCNC2=O | 3 | -1 | 10% | 3.0 | -0.1 | -0.8 | 1
O=C(Nc1cnccn1)c1cccnc1 | -1 | -3 | 6% | 16* | -2.3 | 1.6 | -2
Clc1ccc(-c2nsc(N3CCOCC3)n2)c(Cl)c1 | -5 | -6 | x | 2.2 | 0.9 | 0.9 | -14
COc1cc(/C=N/NC(=O)c2sc3ccccc3c2Cl)ccc1OC(=O)c1ccc([N+](=O)[O-])cc1 | 5 | 9 | 5% | 5.4 | -1.5 | -4.9 | 0
Cc1ccc(C2c3c(-c4ccccc4O)n[nH]c3C(=O)N2Cc2ccncc2)cc1 (stereo not given) | 18 | -4 | 9% | 2.3 | -3.0 | -0.3 | 10
O=C(O)c1ccc(-n2nnnc2Oc2ccccc2C(=O)N2CCOCC2)cc1 | -9 | 3 | -3% | 5.2 | 3.3 | 1.3 | 27
CCOC(=O)N1CCN(C(=O)c2ccc3c(Cl)c4c(nc3c2)CCCC4)CC1 | 59 | 1 | x | 6.7 | -2.2 | 0.3 | 11
CSc1nc(N)nc2c1ncn2CC(=O)NCc1ccc2c(c1)OCO2 | x | -3 | -1% | x | -3.6 | 3.3 | x
CN(C)c1ccc(/C=C/C(=O)c2ccccc2)cc1[N+](=O)[O-] | 10 | 7 | x | -1.7 | -2.4 | 6.9 | -2
COc1cc2c(cc1NC(C)=O)CCCC2 | -3 | 2 | 3% | 6.2 | -1.7 | 4.0 | 4
C=CCSc1cc(C)nc2c(-c3ccccc3)cnn12 | -7 | -2 | -2% | 1.6 | -1.4 | 0.5 | -10
O=C1/C(=C/c2ccco2)CCC1C1CCCC1 (stereo not given) | x | -13 | 25% | -1.7 | 6.2 | 7.8 | -7
Cc1ccccc1C(=O)NC(=S)N(C)CCc1ccccn1 | 9 | -2 | 2% | 2.2 | 1.1 | -2.2 | 3

Entries listed above shown as hits in RanGTP-Impb inh.
SMILES | ALR inh | Beta2AR agonist | Vif A3G | RanGTP-Impb inh | LANA-H2B inh
O=C(Nc1cnccn1)c1cccnc1 | -1 | -3 | 6% | 16* | 1.6

Later entries
SMILES | ALR inh | Beta2AR agonist | Vif A3G | RanGTP-Impb inh | HNF4A DNA FP | LANA-H2B inh | Calb FLC
CC1CC(C)CN(CCOc2ccc(Cl)cc2Cl)C1 (stereo not given) | x | 23 | -9% | -3.7 | 1.2 | -1.2 | -13
CC12CCC(C(=O)N3CCCc4ccccc43)(CC1=O)C2(C)C (stereo not given) | x | -2 | 8% | 1.9 | 4.2 | 0.4 | 10
COc1cccc(C(=O)N(C)CC(=O)Nc2cccc3ccccc23)c1 | 0 | 3 | -4% | x | 3.4 | 2.6 | x
CC(Sc1ccccc1)C(=O)NN=C1CCCC1 (stereo not given) | 4 | -2 | x | u | -0.3 | -3.7 | 4
O=C(NC1CCCCC1)C(c1c(F)cccc1Cl)N(C(=O)c1csnn1)C1CC1 (stereo not given) | -55 | 1 | x | 6.6 | 5.2 | -1.2 | 33
COc1ccc(Nc2cc(C)nc(N)n2)cc1 | x | -1 | 1% | 2.6 | -2.6 | -0.9 | -6
COc1ccc(NC(=O)COC(=O)c2ccc(-n3cnnn3)cc2)c([N+](=O)[O-])c1 | -3 | 10 | x | x | -3.1 | -0.6 | x
Cc1cc(C)nc(N/N=C/c2cccc(Cl)c2)n1 | -5 | -2 | 3% | -2.5 | 3.0 | -0.7 | 2
CCOC(=O)CN1N=C(/C=C/c2ccc(C(C)C)cc2)CCC1=O | 3 | 5 | 10% | 4.1 | 1.0 | 0.2 | 9
CCOC(=O)C1(Cc2cccc(OC)c2)CCCN(C(=O)c2ccccc2C)C1 (stereo not given) | -14 | 6 | -7% | -1.5 | -2.6 | -2.3 | 4
O=S(=O)(c1ccc(Br)cc1)c1nc(-c2ccco2)oc1NCC1CCCO1 (stereo not given) | -11 | -10 | x | 3.5 | 0.8 | -0.5 | -9
COc1ccc(/C=N/NC(=O)CCn2c3ccccc3c3ccccc32)cc1OC | -5 | 22 | -13% | 3.7 | -1.0 | -6.9 | 11
c1ccc(CSc2ncnc3sccc23)cc1 | 8 | 4 | x | u | -2.1 | -7.4 | -17
Cn1c(C(=O)NCc2ccco2)cc2c(=O)[nH]c3ccccc3c21 | x | 2 | 19% | 1.0 | -1.8 | -0.8 | 2
CCOCCn1c(SCc2cccc(C)c2)nc2c1c(=O)[nH]c(=O)n2C | -14 | -1 | 3% | 1.0 | -0.6 | -0.5 | -8
Cc1c(C#N)c2ccccc2n1CC(=O)NC(C)c1ccccc1 (stereo not given) | -4 | -1 | -21% | 1.8 | 1.6 | -3.4 | -32
CN(C(=O)C1CCN(S(=O)(=O)c2ccccc2[N+](=O)[O-])CC1)C1CCCCC1 | -2 | -6 | 5% | x | 7.0 | 0.6 | x
COc1ccc(CN2CCNC(=O)C2CC(=O)N(Cc2nccn2C)C(C)C)c(OC)c1 (stereo not given) | -7 | -1 | -1% | 3.6 | 3.3 | 1.0 | 0
Cc1c(Cc2ccccc2)c(=O)oc2cc(O)ccc12 | 47 | 0 | -10% | 3.8 | -4.5 | 6.1 | 1
CC/C(Cc1ccccc1)=N\NC(=O)c1cc(C)oc1C | 7 | -2 | -3% | -3.4 | 1.1 | -4.6 | 7
Cc1ccc(NS(=O)(=O)c2ccc(Cl)s2)nc1 | -17 | 7 | -8% | 3.8 | 0.7 | -0.8 | 6
CSc1ccc(CN(C)C(=O)c2ccc(S(=O)(=O)Nc3ccccc3)cc2)cc1 | -19 | 15 | 4% | 0.8 | 0.4 | 0.6 | x
COc1ccc2[nH]c(=O)c(CN(C(=O)c3cccnc3)c3ccccc3C)cc2c1 | -7 | 6 | 17% | 1.5 | -0.5 | 2.5 | 5
Cc1cc(C)n(-c2nc(NCC(C)O)c3c4c(sc3n2)COC(C)(C)C4)n1 (stereo not given) | -1 | -7 | -1% | u | -2.0 | -6.1 | -9
O=C(/C=C/c1cccs1)Nc1ccc(N2CCOCC2)c(S(=O)(=O)Nc2ccccc2Cl)c1 | 2 | 10 | -5% | 4.2 | -1.4 | -5.6 | -3

Single records (already shown):
Entry for CC/C(Cc1ccccc1)=N\NC(=O)c1cc(C)oc1C = ALR inh = 7; Beta2AR agonist = -2; Vif A3G = -3%; RanGTP-Impb inh = -3.4; HNF4A DNA FP = 1.1; LANA-H2B inh = -4.6; Calb FLC = 7
Entry for COc1ccc(/C=N/NC(=O)CCn2c3ccccc3c3ccccc32)cc1OC = ALR inh = -5; Beta2AR agonist = 22; Vif A3G = -13%; RanGTP-Impb inh = 3.7; HNF4A DNA FP = -1.0; LANA-H2B inh = -6.9; Calb FLC = 11
Entry for CCOC(=O)CN1N=C(/C=C/c2ccc(C(C)C)cc2)CCC1=O = ALR inh = 3; Beta2AR agonist = 5; Vif A3G = 10%; RanGTP-Impb inh = 4.1; HNF4A DNA FP = 1.0; LANA-H2B inh = 0.2; Calb FLC = 9

(more compounds)
SMILES | ALR inh | Beta2AR agonist | Vif A3G | RanGTP-Impb inh | HNF4A DNA FP | LANA-H2B inh | Calb FLC
CCOC(=O)CN1CC23C=CC(O2)C(C(=O)NC2CCCCCC2)C3C1=O (stereo not given) | -25 | 1 | -4% | -0.7 | 1.5 | -0.1 | 0
Oc1ccc(Cl)cc1N=Nc1ccccc1 | 6 | -5 | 1% | 2.5 | 3.1 | -2.8 | 2
Cc1ccc(C2CC(c3cccs3)=NN2C(=O)CSc2nc(=O)n3cc(C)ccc3n2)cc1 (stereo not given) | x | 7 | 4% | -2.2 | 0.3 | x | -4
CCOC(=O)c1c(NC(=O)C(F)(OC)C(F)(F)F)sc(C(=O)N2CCCCC2)c1C (stereo not given) | -3 | 8 | 2% | 2.1 | -0.2 | -1.1 | -2
O=S(=O)(NC1CCCCCC1)c1cccc2cccnc12 | 11 | -4 | -4% | 7.6 | 3.1 | 182* | -24
N#Cc1c2c(c(NCc3ccco3)n3c1nc1ccccc13)CCC2 | 11 | 2 | u | 6.3 | 3.0 | 6.2 | -1
Cc1cc(C)c(NC(=O)CNC(=O)c2ccccc2SCC(=O)N2CCCC2)c(C)c1 | 1 | 8 | x | x | 0.8 | -1.8 | x
CCOC(=O)c1c(S(=O)(=O)NCC(=O)Nc2cc(C)ccc2C)c(C)n(C)c1C | -1 | -1 | x | -0.5 | -1.9 | -4.6 | -5
COc1ccc(C(C)=O)cc1COc1cccc2c1OC(C)(C)C2 | 14 | -5 | x | 1.7 | 1.3 | 8.4 | 8
O=C(NCc1ccccc1)c1cnc(Cl)c(Cl)c1 | -3 | -9 | x | -1.1 | 2.5 | 2.5 | 0
Cc1ccc(-n2cc(CNC(C)Cn3cncn3)c(-c3ccc(F)cc3)n2)cc1 (stereo not given) | -8 | -12 | x | 0.8 | -3.3 | 0.0 | -4
CCCCC(CC)CNC(=O)C(Cc1ccccc1)NS(=O)(=O)c1ccc2c(c1)CCC(=O)N2 (stereo not given) | x | 14 | -2% | -2.2 | -2.3 | -0.1 | -3
O=C(c1ccc(NS(=O)(=O)c2ccc(F)cc2)cc1)N1CCCCC1 | 2 | -9 | 3% | 0.9 | 0.4 | -1.6 | -4
COc1ccc(C(=O)COC(=O)CCn2nnc(-c3cccc(O)c3OC)n2)cc1 | 1 | -5 | 5% | -4.3 | 1.2 | -0.2 | -3

Laid out differently: two of the compounds above.
SMILES	ALR inh	Beta2AR agonist	Vif A3G	RanGTP-Impb inh	HNF4A DNA FP	LANA-H2B inh	Calb FLC
CCOC(=O)c1c(S(=O)(=O)NCC(=O)Nc2cc(C)ccc2C)c(C)n(C)c1C	-1	-1	x	-0.5	-1.9	-4.6	-5
COc1ccc(C(C)=O)cc1COc1cccc2c1OC(C)(C)C2	14	-5	x	1.7	1.3	8.4	8

Screening data: PubChem BioAssay, several laboratories
